# TRPC4 act: opens the mouse TRPC4 cation channel | Q9QUQ5 | HEK293 TRPC4beta/mu-opioid, Fluo4 calcium fluorescence; active compounds read high | B-score at 10 µM | 310,000 tested, 0.49% active | AID 2237;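 active = B-score above 5 SD of library B-scores, and initial fluorescence ratio not above library mean plus 5 SD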;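 note: positive B-score marks a calcium rise read as TRPC4 activation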
#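 Assay system: HEK293 stable line with TRPC4beta plus mu-opioid receptor. Times: dye 45 min RT, read 110 s. Measured by: kinetic Fluo4 calcium fluorescence. Measure: B score of integrated ratio. Controls: assay buffer as low control, maximal DAMGO as high control.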
# PolyA inhibitor: blocks polyadenylation in yeast reporter cells | S. cerevisiae SKY197-pL101 polyadenylation reporter, beta-gal luminescence; efflux-impaired pdr1/pdr3 knockout yeast; score 100 = 6 SD above DMSO | calls only at 12 µM | 300,000 tested, 0.02% active;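 active = lowest replicate activity score at least 50, where 100 means six control SD above control mean; inconclusive = lowest score under 50 but half or more replicates reach 50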;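 note: yeast exposed to compound for 9 h at 30 °C; higher score means more reporter readthrough which indicates perturbed polyadenylation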
# KCNQ1 block: inhibitors of human KCNQ1 potassium channel. CHO-K1 KCNQ1, FluxOR thallium flux fluorescence; active compounds read high. AID 2642. P51787. 310,000 tested, 1.3% active. B-score at 10 µM;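 active = compounds whose thallium flux B-score, printed positive for inhibition, exceeds three library SD while starting fluorescence stays within three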;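 note: channel opened by potassium depolarization with thallium stimulus after 20 min compound exposure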
# KCNK3 inh: human KCNK3 channel inhibition, primary screen; O14649; CHO-KCNK3 thallium flux, FluxOR fluorescence; active compounds read low; B-score at 10 µM; 340,000 tested, 0.84% active; AID 602410;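 active = B-score under library mean minus 4 SD, starting fluorescence ratio at most library mean plus 5 SD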;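 note: more negative B-score means stronger inhibition of thallium flux through KCNK3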
# Target sequence (O14649 whole entry, looked up): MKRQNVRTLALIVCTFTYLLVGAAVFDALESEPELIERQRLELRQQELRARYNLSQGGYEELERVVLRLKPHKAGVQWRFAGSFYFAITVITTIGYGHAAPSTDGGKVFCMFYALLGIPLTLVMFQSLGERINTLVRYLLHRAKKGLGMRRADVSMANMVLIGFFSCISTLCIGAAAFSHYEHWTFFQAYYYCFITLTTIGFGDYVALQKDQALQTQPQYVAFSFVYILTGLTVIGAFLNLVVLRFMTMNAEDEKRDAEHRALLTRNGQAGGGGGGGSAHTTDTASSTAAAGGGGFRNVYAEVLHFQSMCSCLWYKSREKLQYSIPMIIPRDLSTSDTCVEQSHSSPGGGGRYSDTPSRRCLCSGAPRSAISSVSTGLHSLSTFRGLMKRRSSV
# Platelet DG rel: modulates dense granule release in human platelets | 300,000 tested, 0.22% active | human platelet-rich plasma, SFLLRN dense granule ATP release, luminescence | inhibition, %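 (compounds screened at 7.5 µM in platelet-rich plasma)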 | AID 1663;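 active = mean replicate score, as percent of positive control, at or above 50; inconclusive = mean below 50 but at least one replicate at or above 50; inactive = mean and every replicate below 50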
# TRPC4 block: inhibitors of mouse TRPC4 channel; B-score at 10 µM; AID 2247; Q9QUQ5; 300,000 tested, 0.39% active; HEK293 TRPC4beta/mu-opioid, DAMGO-evoked Fluo4 calcium flux; active compounds read low;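 active = B-score over 3 SD under the library average, no early fluorescence shift, positive overall ratio signal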
#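 Assay system: Stable TRPC4beta/mu-opioid receptor HEK293 cells | Reagent: DAMGO in two steps, submaximal then maximal | Compound dosing: Single concentration per test compound | Signal: Fluo4 Ca2+ flux fluorescence | Evaluation: Per-well B score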
# KCNQ1 pot: potentiators or activators of human KCNQ1 potassium channel; P51787; CHO-K1 KCNQ1, thallium flux FluxOR fluorescence; active compounds read high; B-score at 10 µM; 310,000 tested, 0.35% active; AID 2648;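 active = fluorescence ratio B-score, a plate-corrected score, at least three library SD, with initial intensity B-score within 5 SD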
#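 Doses: Single concentration per compound, DMSO matched to controls | Test system: KCNQ1-transfected CHO-K1 cells | Timing: 90 min dye loading and 20 min compound exposure, both at room temperature | Measured by: Kinetic FluxOR thallium fluorescence, 10-s 1-Hz baseline, 110-s post-stimulus read | Medium: Assay buffer with matched DMSO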
# TRPC4 potent: TRPC4 (mouse) allosteric potentiation; Q9QUQ5; HEK293 TRPC4beta/mu-opioid, DAMGO EC20, Fluo-4 Ca2+ flux; active compounds read high; B-score at 10 µM; 310,000 tested, 0.42% active;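 active = B-score of calcium response area above 5 SD of library B-scores, with initial fluorescence ratio within 5 SD of library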;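 note: B-score of integrated fluorescence ratio over time as area under calcium response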
# hERG rescue: compounds protecting human hERG from proarrhythmic drug block; Q12809; CHO-hERG, FluxOR thallium flux, dofetilide IC70 present; activation (rescue from dofetilide block), less the hit threshold, % at 10 µM; 310,000 tested, 0.51% active;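 active = activation above the mean of controls blocked by dofetilide plus 5 SD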;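 note: thallium influx through hERG after potassium depolarization seen as dye fluorescence rise; in these data hits start at about 4.7%; inactives centre near -7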
# KCNK9 inh: blocks the human KCNK9 two-pore domain potassium channel; Q9NPC2; HEK293 KCNK9, FluxOR thallium flux fluorescence; active compounds read low; B-score at 10 µM; 310,000 tested, 1.2% active; AID 488922;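 active = ratio B-score over 3 SD below the library mean, with starting fluorescence within 5 SD of its mean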;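 note: negative B-score means less thallium flux so channel inhibition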
# Target sequence (Q9NPC2 whole entry, looked up, the tested form may be a part): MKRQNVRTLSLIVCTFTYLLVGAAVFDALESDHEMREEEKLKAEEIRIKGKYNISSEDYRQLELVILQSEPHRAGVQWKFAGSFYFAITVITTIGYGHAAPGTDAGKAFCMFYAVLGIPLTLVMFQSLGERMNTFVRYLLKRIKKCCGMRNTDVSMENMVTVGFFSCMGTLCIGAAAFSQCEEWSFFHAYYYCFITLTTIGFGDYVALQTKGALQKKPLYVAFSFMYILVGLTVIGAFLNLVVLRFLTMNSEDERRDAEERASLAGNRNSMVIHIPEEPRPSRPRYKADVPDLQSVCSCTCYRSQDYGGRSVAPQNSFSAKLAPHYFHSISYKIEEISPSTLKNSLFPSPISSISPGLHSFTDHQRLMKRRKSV
# The depositor's hits bear a star; i = inactive; ? = inconclusive; · = not tested or not shown. These rows are one share of the data (hit frequency here may not be typical).
SMILES,TRPC4 act,PolyA inhibitor,KCNQ1 block,KCNK3 inh,Platelet DG rel,TRPC4 block,KCNQ1 pot,TRPC4 potent,hERG rescue,KCNK9 inh
COc1ccc(C2CC2/C(C)=N/OC(=O)c2ccc(F)cc2)cc1 (stereo not drawn),i,i,i,i,-7,i,i,i,-9,i
Cc1nn(-c2ccccc2)c(N)c1C1(O)C(=O)Nc2ccccc21 (stereo not drawn),i,i,i,i,3,i,i,i,-6,i
CCOC(=O)C1CCN(c2nc3cc(OC)ccc3cc2C#N)CC1,i,i,i,i,2,i,i,i,-13,i
COc1ccc(OC)c(NC(=O)CSc2nc(N)c(-c3ccccc3)c(=O)[nH]2)c1,i,i,i,i,?,i,i,i,-9,i
COc1ccc2nc(NC(=O)C3CCCN(S(=O)(=O)c4cccc5nonc45)C3)sc2c1 (stereo not drawn),i,i,i,i,-1,i,i,i,-1,i
COc1ccc(/C=N/NC(=O)c2ccc(NS(=O)(=O)c3cccs3)cc2)cc1,·,·,·,i,·,·,·,·,·,·
COc1ccc(C2NC(=O)NC(C)=C2C(=O)Nc2cccc(C)c2C)cc1 (stereo not drawn),i,i,i,i,29,i,i,i,-2,i
NC(=O)c1cc2ccc(O)cc2oc1=NCc1ccccc1,i,i,31*,i,12,i,i,i,-60,i
O=C(Nc1nccs1)c1cn2ccccc2n1,i,i,i,i,14,i,i,i,-1,i
CC(=O)NC12CC3CC(C1)CC(C(=O)Nc1nc4ccc(S(C)(=O)=O)cc4s1)(C3)C2,i,i,i,i,9,i,i,i,-15,i
CSc1nc2ccc(NC(=O)C3CCCO3)cc2s1 (stereo not drawn),i,i,i,i,7,i,i,i,-1,i
COC(=O)N/N=C/c1c(C)c(C(=O)c2ccc(F)cc2)n2ccccc12,i,i,i,i,4,i,i,i,-7,i
CC(C)=CCc1c(O)cc2c(=O)c3ccc(O)cc3oc2c1O,i,i,i,i,-8,i,i,i,-11,-12*
CSc1n[nH]c(NCc2ccccc2)n1,i,i,i,i,7,i,i,i,-10,i
Cc1ccc(CC(=O)CCc2ccccc2)cc1,i,i,i,i,-1,i,i,i,-8,i
CC(C)c1ccc(NC(=O)COc2ccccc2)cc1,i,i,i,i,-1,i,i,i,-8,i
COc1ccc(/C=C2\N=C(SC)N(C)C2=O)cc1,i,i,i,i,41,i,i,i,-11,i
CC(C)n1cnc2c(Nc3cccc(Cl)c3)nc(NCCCO)nc21,i,i,i,i,-1,i,i,i,-8,i
N/C(=N\OC(=O)c1ccco1)c1cccc(Br)c1,i,i,i,i,1,i,i,i,-8,i
COc1ccc(-c2cnn(C3CCS(=O)(=O)C3)c2N)cc1 (stereo not drawn),i,i,i,i,0,i,i,i,-1,i
FC(F)(F)c1cc(-c2ccco2)nc(-n2nc(C(F)(F)F)cc2C2CC2)n1,i,i,i,i,-2,i,i,i,-9,i
CCN1/C(=C\C(=S)Nc2ccccc2)Sc2ccccc21,i,i,i,-9.8*,-1,i,i,i,-14,i
O=C(/C=C/c1cn(-c2ccccc2)nc1-c1cccs1)NCCN1CCOCC1,i,i,i,i,7,i,i,i,-11,i
CCCn1nnc(NC(=O)c2ccc(-c3cc(Cl)ccc3Cl)o2)n1,i,i,i,i,-1,i,i,i,-3,i

# Reformatted bar-delimited: entries from further up.
canonical_smiles | TRPC4 act | PolyA inhibitor | KCNQ1 block | KCNK3 inh | Platelet DG rel | TRPC4 block | KCNQ1 pot | TRPC4 potent | hERG rescue | KCNK9 inh
CC(C)n1cnc2c(Nc3cccc(Cl)c3)nc(NCCCO)nc21 | i | i | i | i | -1 | i | i | i | -8 | i
N/C(=N\OC(=O)c1ccco1)c1cccc(Br)c1 | i | i | i | i | 1 | i | i | i | -8 | i
COc1ccc(-c2cnn(C3CCS(=O)(=O)C3)c2N)cc1 (stereo not drawn) | i | i | i | i | 0 | i | i | i | -1 | i
FC(F)(F)c1cc(-c2ccco2)nc(-n2nc(C(F)(F)F)cc2C2CC2)n1 | i | i | i | i | -2 | i | i | i | -9 | i
CCN1/C(=C\C(=S)Nc2ccccc2)Sc2ccccc21 | i | i | i | -9.8* | -1 | i | i | i | -14 | i
O=C(/C=C/c1cn(-c2ccccc2)nc1-c1cccs1)NCCN1CCOCC1 | i | i | i | i | 7 | i | i | i | -11 | i
CCCn1nnc(NC(=O)c2ccc(-c3cc(Cl)ccc3Cl)o2)n1 | i | i | i | i | -1 | i | i | i | -3 | i

# Going on with the list:
SMILES,TRPC4 act,PolyA inhibitor,KCNQ1 block,KCNK3 inh,Platelet DG rel,TRPC4 block,KCNQ1 pot,TRPC4 potent,hERG rescue,KCNK9 inh
Cn1c(=NC(=O)CSCC(=O)N2CCOCC2)sc2ccccc21,i,i,i,i,9,i,i,i,-5,i
CCS(=O)(=O)n1c(Cc2cccs2)nc2ccccc21,i,i,i,i,5,i,i,i,-5,i
C=CCn1c(CNC(=O)c2ccccc2F)nnc1SCC(=O)N1CCOCC1,i,i,i,i,-2,i,i,i,-4,i
O=S(=O)(c1ccccc1)N1CCN(c2cc(-c3ccccc3)nc3ncnn23)CC1,i,i,i,i,8,i,i,i,-11,i
CCOc1ccc(NC(=O)c2cnsn2)cc1,·,·,·,i,·,·,·,·,·,·
CC1(C)Cc2ccccc2C(C(=O)c2ccccc2)=N1,i,i,i,i,4,i,i,i,0,i
CCc1nc(NCC2CCCN2CC)c2nnn(Cc3ccccc3F)c2n1 (stereo not drawn),i,i,i,i,-3,i,i,i,-7,i
COc1ccccc1NC(=O)CN1CCC(n2c(C)nc3cc(F)ccc32)CC1,i,i,8*,i,15,i,i,i,-13,i
COc1ccc2c(c1)c1ncn(Cc3ccco3)c(=O)c1n2C,i,i,i,i,-12,i,i,i,-10,i
O=c1cc(-c2ccncc2)oc2ccccc12,i,·,i,i,·,i,i,i,-2,i
Cc1nn(-c2ccccc2)c2[nH]c(=O)c(CNCCN3CCOCC3)cc12,i,i,i,i,0,i,i,i,0,i
CN(C)CCN(C(=O)CN1C(=O)c2ccccc2C1=O)c1nc2cc3c(cc2s1)OCO3,i,i,i,i,-27,i,i,i,-10,i
O=C(/C=C/c1ccc2c(c1)OCO2)N1CCOCC1,i,i,i,i,3,i,i,i,-6,i
Cc1cc(-c2csc(NC(=O)c3ccc(=O)[nH]c3)n2)c(C)n1Cc1ccco1,i,i,i,i,-1,i,i,i,-5,i
CC(=O)N1CCN(c2nc(-c3ccco3)c3c(c2C#N)CC(C)(C)SC3)CC1,i,i,i,i,-18,i,i,i,-28,i
COc1cc(/C=C2\C(=O)N(C)C(=S)N2C)ccc1O,i,i,i,i,11,i,15*,i,-5,i
COc1ccc2nc(NC(=O)c3ccccc3[N+](=O)[O-])sc2c1,i,i,i,i,3,i,i,i,-1,i
Cc1c(/C=N/O)c2ccccn2c1C=O,i,i,i,i,2,i,i,i,-13,i
OCCNc1nc(-c2cccnc2)nc2ccccc12,i,i,i,i,0,i,i,i,-7,i
O=C1Nc2cc(C(=O)N3CCOCC3)ccc2S/C1=C\c1ccccc1,i,i,i,i,-14,i,i,i,-5,i
CN(c1ccccc1)S(=O)(=O)c1ccc(C(=O)OCC(=O)NC(N)=O)cc1,i,i,i,i,0,i,i,i,-12,i
Nc1nc(/C=C/c2cccnc2)nc(-c2ccccc2O)n1,i,i,i,i,0,i,i,i,-12,i
O=C(CSc1ncnc2sc3c(c12)CCCC3)N1CCC(c2noc3ccc(F)cc23)CC1,i,i,i,i,-5,i,i,i,-22,i
CCCCC1=CC2=CC(=O)C(C)(OC(=O)CCc3ccccc3)C(=O)C2=CO1 (stereo not drawn),i,i,i,i,-2,i,i,i,-7,i
O=c1oc(-c2ccccc2[N+](=O)[O-])nc2ccccc12,i,i,i,i,14,i,i,i,-11,i
CC(C)OCCCNC(=O)CCCC(=O)Nc1ccc(OCCc2ccccc2)cc1,i,i,i,i,-6,i,i,i,-6,i
CCn1cnc2c(NCCc3cccnc3)nc(C#N)nc21,·,·,·,i,·,·,·,·,·,·
COc1ccccc1-c1n[nH]c(=S)n1Cc1ccccc1,i,i,i,i,0,i,i,i,-8,i
Cc1c(/C=N/NC(=O)c2ccccc2O)c2ccccn2c1C(=O)c1ccc(F)cc1,i,i,10*,-11*,0,i,i,i,-20,-7.9*
COc1ccc(C(=O)c2sc(Nc3ccccc3)nc2N)cc1OC,i,i,i,i,9,i,i,i,-5,i
COC(=O)Cc1ccc(NC(=O)c2ccc(Br)o2)cc1,i,i,i,i,12,i,i,i,-8,i
O=C(Nc1ccccc1)c1ccc(F)c(S(=O)(=O)N2CCOCC2)c1,i,i,i,i,-1,i,i,i,-3,i
CCC(=O)/C=C1/Sc2ccc(OC)cc2N1CCO,i,i,i,i,-1,i,i,i,-2,i
COC(=O)Cc1cc(=O)oc2c(C)c(O)ccc12,i,i,i,i,6,i,i,i,-5,i
CC(C)(C)n1nnnc1C(c1ccc2ncccc2c1)N1CCSCC1 (stereo not drawn),i,i,i,i,2,i,i,i,-3,i
CC1(C)Oc2ccc3ccc(=O)oc3c2-c2cn[nH]c21,i,i,i,i,21,i,i,i,-5,i
Cc1ccc(-c2nnn(CC(=O)N(CC(=O)NCc3ccccc3)c3cccc(C)c3C)n2)o1,i,i,i,i,1,i,i,i,-16,i
COc1ccc(OC)c(-n2c(-c3cc(-c4ccccc4)n[nH]3)n[nH]c2=S)c1,i,i,i,i,-3,i,i,i,-12,i
Cc1ccccc1OCCNC(=O)CSc1ccc(C(F)(F)F)cc1[N+](=O)[O-],i,i,i,i,1,i,i,i,-7,i
CCOC(=O)C1CCN(C(=O)Nc2ccc3nc(C)c(C)nc3c2)CC1,i,i,i,i,-35,i,i,i,-9,i
CC(C)(O)C(=O)NN(C(=O)c1ccccc1)c1ccc2ccccc2c1,i,i,i,i,14,i,i,i,-4,i
O=C(Nc1ccccc1Oc1ccccc1)c1cccc([N+](=O)[O-])c1,i,i,i,i,0,i,i,i,-17,i
Cc1c(C=O)c2ccccc2n1CCOc1ccccc1,i,i,i,i,-1,i,i,i,-5,i
